Calb biofilm kill: mixture kills Candida albicans biofilm cells; inhibition, % at 7.6 µM; C. albicans biofilm persisters + clotrimazole, fluorescence viability; primary screen in compound mixtures of four per well; AID 1242; hit rate 0.02% among 120,000;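 active = inhibition above 30.3% in the primary screen of four-compound pools, then above 30% when the compound was retested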;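 note: compounds exposed to preformed 24 h biofilms for 48 h; the number belongs to the whole pool; some results filed as inactive read as strong as hits; inactives centre near 12; 0% = biofilm with clotrimazole alone and 100% = kill control; retested singly at about 60 µM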
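Probe or stimulus – Clotrimazole 50 µg/mL co-treatment · System – C. albicans biofilms · Schedule – 24 h biofilm formation, then 48 h compound exposure, 37 °C · Evaluation – percent inhibition of biofilm viability · Technique – 2-h Alamar Blue fluorescence, 535/590 nm excitation/emission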
An asterisk follows results filed as active.

nr	SMILES	Calb biofilm kill
1	Clc1ccc(-c2ccc(C=Nc3ccc(N4CCOCC4)cc3)o2)c(Cl)c1	15.6
2	NC(=O)CC(NC(=O)Cc1ccc(Br)cc1)c1ccc(NCc2ccccn2)c([N+](=O)[O-])c1 (stereo unspecified)	15.6
3	CCc1ccc(CNn2cnnc2SCC(=O)NC(C)(C)C)cc1	17.5
4	COc1ccc(C(CC(=O)N2CCCCC2)c2c(OC)cc(OC)c3c(-c4ccccc4)cc(=O)oc23)cc1 (stereo unspecified)	17.6
5	COCCNc1nc2nonc2nc1N(C)Cc1ccc(C)cc1	11.6
6	CCOc1ccc(CCNC(=O)CCS(=O)(=O)c2ccc(OC)cc2)cc1OCC	11.5
7	CCC(c1nnnn1C(C)(C)C)N1CCN(Cc2ccccc2OC)CC1 (stereo unspecified)	7.5
8	S=C(NCc1ccco1)N1CCN(c2cccc(Cl)c2)CC1	7.4
9	Cc1ccc(NC(=S)N(CCCN2CCOCC2)Cc2ccccn2)cc1	15.0
10	O=C(Cc1ccccc1)Nc1ccc2c(c1)C(=O)N(CC1CCCO1)C2=O (stereo unspecified)	15.4
11	NC(=O)CCC(=O)N1CCCC(C(=O)c2ccc3c4c(cccc24)CC3)C1 (stereo unspecified)	14.7
12	Cc1ccccc1-n1cc[nH]c1=S	-0.9
13	CCCC(=O)Oc1c(S(=O)(=O)c2ccc(C)cc2)c(C)nn1C(C)(C)C	12.9
14	Cc1cccc(OCCCC(=O)NCCc2ccccc2)c1	18.7
15	O=C(Nc1nc(-c2ccc3ccccc3c2)cs1)C1CCN(S(=O)(=O)c2cccs2)CC1	3.2
16	CN1CCN(S(=O)(=O)c2ccc(NC(=S)NC(=O)C3CCCCC3)cc2)CC1	15.7
17	Cc1nnc(NC(=O)C2CCN(S(=O)(=O)c3ccc(Cl)cc3)CC2)s1	13.1
18	CC(C)c1ccc(O)c(NC(=S)NC(=O)CCc2ccccc2)c1	24.4
19	COc1cccc(C2=NN(S(C)(=O)=O)C(c3cccs3)C2)c1 (stereo unspecified)	12.3
20	COc1cc(/C=N/NC(=O)c2cccnc2)ccc1OCC(=O)Nc1ccc(C)cc1	12.5
21	Cc1cc(C(F)(F)F)nn1CC(=O)N(C)c1ccccc1	14.9
22	CC(=O)c1ccc(N2CCN(C(=O)/C=C/c3ccc(S(=O)(=O)N4CCOCC4)cc3)CC2)cc1	14.6
23	Oc1ccccc1N=Cc1sc2ccccc2c1Cl	5.9
24	CCc1nc(Sc2nnnn2-c2ccccc2)c2c3c(sc2n1)CCCC3	12.1
25	O=C(N/C(=C/c1ccco1)C(=O)N1CCOCC1)c1cccs1	-13.0
26	O=C(Nc1ccc(Cl)c(S(=O)(=O)N2CCOCC2)c1)c1ccccn1	7.7
27	CS(=O)(=O)Nc1ccc(C2=NN(C(=O)C3CCCCC3)C(c3cccs3)C2)cc1 (stereo unspecified)	12.6
28	CC(C)Cc1nc2sc3c(=O)n(N)cnc3c2c2c1COC(C)(C)C2	22.8
29	O=C(CSc1nncs1)Nc1cc(-c2ccccc2)nn1-c1ccccc1	14.4
30	O=C(/C(=C\c1ccccc1)c1nc2ccccc2[nH]1)c1ccc(Cl)cc1	18.6
31	CCCCC(CC)C(=O)N1CCN(C(=O)c2ccco2)CC1 (stereo unspecified)	14.7
32	NC(=O)c1c(-c2ccc(Cl)cc2Cl)csc1NC(=O)Cc1ccccc1	9.2
33	CC[C@H](C)/C=C(C)/C=C/C(=O)Cc1cc(O)c(C)c(O)c1C=O	12.6
34	NC(=S)Nn1c(-c2ccccc2)nc2ccccc2c1=O	14.0
35	CCN1CCN(c2nc3ccccn3c(=O)c2/C=C(\C#N)S(=O)(=O)c2ccccc2)CC1	15.4
36	COc1cccc(NC(=O)CN(C)C(=O)COc2ccc3ccccc3c2)c1	7.4
37	N#C/C(=C\Nc1ccc2c(c1)OCCO2)C(=O)NCc1ccco1	25.6
38	O=C(CN1CCOCC1)N1CCN(c2ccc3ccccc3n2)CC1	10.3
39	CCNC(=S)N1CCN(CCN2C(=O)c3cccc4cccc(c34)C2=O)CC1	7.0
40	C=CCc1cc(Cl)ccc1OCCNCCCOC	7.4
41	Cc1cc([N+](=O)[O-])nn1CC(=O)Nc1ccc(Cc2ccncc2)cc1	14.0
42	COc1ccc(NC(=O)Nc2cccnc2)c(OC)c1	11.1
43	COc1ccc(-n2ccnc2SCC(=O)NC2CCCC2)c(OC)c1	10.5
44	O=C(Cn1c(NCCO)nc2ccccc21)NCC1CCCO1 (stereo unspecified)	9.5
45	Cc1sc2nc(CSc3ccccc3)nc(NCCN(C)C)c2c1C	11.9
46	COc1ccc(F)cc1S(=O)(=O)NCc1ccccc1	6.7
47	CCO[C@H]1OC(C(=O)O)=C[C@@H](C2CCCCC2)[C@@H]1CCCO	18.7
48	O=C(CSc1nnc(CCCN2C(=O)c3cccc4cccc(c34)C2=O)n1-c1ccccc1)N1CCN(CCO)CC1	18.3
49	COC(=O)c1sc(NC(=S)NC(=O)c2ccc(C)cc2)nc1C	16.5
50	O=C(NNc1ccc([N+](=O)[O-])cc1)c1ccccc1Cl	12.7

Other structures
nr	SMILES	Calb biofilm kill
51	Cc1cc(-c2cccs2)c2c(N)c(C(=O)c3ccc4c(c3)OCO4)sc2n1	16.2
52	S=C1NC2(CCCCC2)NN1c1ccccc1	10.2
53	C[C@@H]1C=C[C@](Cc2ccccc2)(C(=O)NCC2CC2)N1C(=O)c1ccccc1	12.6
54	CC1CC(Nc2ccccc2)=NC1(C)C (stereo unspecified)	9.8
55	C[C@@H](O)[C@@H]1NC(=O)c2cc([N+](=O)[O-])cc(I)c2NCC[C@@H](C(N)=O)NC(=O)CNC1=O	17.0
56	N#C/C(=C(/O)C(Cl)(Cl)Cl)c1nc2ccccc2[nH]1	24.4
57	COc1ccc(OC)c(NC(=O)CC2SC(=Nc3ccccc3)N(CCc3ccccn3)C2=O)c1 (stereo unspecified)	15.6
58	CC(C)N=C1NN=C(c2cccs2)C(CC(=O)O)S1 (stereo unspecified)	2.6
59	COc1ccc(N(C)S(=O)(=O)c2cccc(C(=O)OCC(=O)Nc3sc4c(c3C#N)CCCCC4)c2)cc1	17.0
60	Cc1nc(Nc2ccc(O)cc2)c2c3c(sc2n1)CCCC3	32.4
61	C=C(C)COc1ccc2c(CC)cc(=O)oc2c1C	11.4
62	Cc1cccc(C2(c3cccc(C)c3)CC2C(=O)Nc2ccc([N+](=O)[O-])cc2O)c1 (stereo unspecified)	16.4
63	CCOC(=O)N1CCC(N2CCCC(C(=O)c3cc(F)ccc3OC)C2)CC1 (stereo unspecified)	7.9
64	O=C(O)CC1(CC(=O)NCc2cc(F)cc3c2OCOC3)CCCCC1	16.5
65	CCc1ccc(Nc2cnn(C34CC5CC(CC(CC(=O)O)(C5)C3)C4)c(=O)c2Cl)cc1	9.2
66	CSC(=S)N/N=C/c1ccc(Br)cc1	25.1
67	Cc1cc(C)n2c(SCC(=O)Nc3ccc(F)cc3)nnc2n1	14.7
68	Cc1cc(C)c(OCC(O)CN2CCN(c3ccccn3)CC2)c(C)c1 (stereo unspecified)	9.1
69	O=Cc1cccc(Oc2ncccn2)c1	16.2
70	O=C(CCC(=O)Nc1ccc(Cl)cc1Cl)NNC(=O)[C@@H]1CCCC[C@@H]1C(=O)O	8.1
71	Cc1ccccc1NC(=O)COC(=O)CNC(=O)c1sc2ccccc2c1Cl	8.4
72	Cc1ccc(C(=O)NC(=S)Nc2ccc(N3CCOCC3)cc2)cc1	8.3
73	COc1ccc(/C=C2\N=C3CCCN3C2=O)cc1	14.2
74	NNC(=O)c1ccc(Cl)cc1Cl	13.9
75	CN1CCN(C(=S)c2cn(CCOc3ccccc3)c3ccccc23)CC1	11.1
76	Cn1nc(C(F)(F)F)c(-c2ccc(F)cc2)c1NC(=O)CSCC(=O)O	12.5
77	O=C(Cn1cnc2ccccc21)N/N=C/c1ccc([N+](=O)[O-])cc1	16.5
78	NC(=S)c1c(Cl)cc(C(F)(F)F)cc1Cl	11.8
79	Cc1cc(C)c(S(C)(=O)=O)c(NN)n1	24.0
80	Cc1cccc(NC(=O)/C=C/c2ccc3c(c2)OCO3)n1	27.3
81	O=C(CSc1ncnc2ccccc12)c1ccco1	17.2
82	Cc1ccc(NC(=S)N2CCCC2)cc1	5.2
83	Nc1ccc(C(=O)OCCCc2nc3ccccc3[nH]2)cc1	15.0
84	C=CCNc1cc(C)oc(=O)c1C(=O)CC	12.2
85	CC(C)CN(C(=O)CN1CCN(c2ccc(O)cc2)CC1)c1c(N)n(CC(C)C)c(=O)[nH]c1=O	19.6
86	COc1ccc(NC(=S)N2CCN(C(=O)C3CCCO3)CC2)c(OC)c1 (stereo unspecified)	13.1
87	COc1cccc(CNc2ccccc2O)c1OCc1ccccc1F	10.6
88	c1ccc(CN2CCOCCOCCOCCOCC2)cc1	4.9
89	CCOc1ccc(CNC(=S)N/N=C/c2cccnc2)cc1	8.3
90	COc1ccc(N2CCc3c(C)nc4c(OC)cc(OC)cc4c32)cc1	14.4
91	CCC(=O)N/C(=N/c1nc(C)cc(C)n1)Nc1ccccc1	0.9
92	CC(C)Cn1cc(F)c(=O)n(CC(C)C)c1=O	11.0
93	CCc1ccc(C(=O)CSc2nc(C)cc(=O)[nH]2)cc1	22.6
94	Cc1c(-c2ccc(O)cc2)nc2nc(-c3ccccc3)c(-c3ccccc3)nn12	1.7
95	COc1ccc2[nH]c3c(N4CCc5ccccc5C4)ncnc3c2c1	18.2
96	O=C(NCCc1ccccc1)c1ccc(-c2ccc(F)cc2)o1	5.8
97	Cc1cc(C)n(CC(C)NC(=O)CCc2nnc(CCc3ccccc3)o2)n1 (stereo unspecified)	3.6
98	Cc1ccc(C(=O)N2CCN(c3ccccn3)CC2)cc1[N+](=O)[O-]	14.5
99	COc1ccc(CCNC(=O)Cn2cccc2C(=O)c2ccccc2)c(OC)c1	-0.9
100	C/C=N/N(c1ccccc1)c1ccccc1	26.1

Records 97 to 100, reprinted for reference:
nr	SMILES	Calb biofilm kill
97	Cc1cc(C)n(CC(C)NC(=O)CCc2nnc(CCc3ccccc3)o2)n1 (stereo unspecified)	3.6
98	Cc1ccc(C(=O)N2CCN(c3ccccn3)CC2)cc1[N+](=O)[O-]	14.5
99	COc1ccc(CCNC(=O)Cn2cccc2C(=O)c2ccccc2)c(OC)c1	-0.9
100	C/C=N/N(c1ccccc1)c1ccccc1	26.1

A few values from above.
For Calb biofilm kill, compound 45 is entered as 11.9
For Calb biofilm kill, compound 10 is entered as 15.4
For Calb biofilm kill, compound 2 is entered as 15.6

Next structures follow.
nr	SMILES	Calb biofilm kill
101	COc1ccc(C[C@H]2CN3C(=NC[C@@H]3C(C)C)N2C[C@H](C)NC(=O)c2ccc(C)c(Br)c2)cc1	19.9
102	COc1ccc(NC(=O)N2CCCCCC2)c(OC)c1	15.3
103	S=C(NCc1ccco1)N1CCC(c2nc3ccccc3o2)CC1	13.7
104	Cc1cc(C(=O)NC2=NCCS2)c2ccccc2n1	6.3
105	CCc1ccc(N2C(=O)C3C4CCC(C4=C(C)C)C3C2=O)cc1 (stereo unspecified)	12.9
106	CC1Cc2ccccc2N1C(=O)c1cc2sccc2n1Cc1ccc(F)cc1 (stereo unspecified)	5.4
107	c1ccc(CNC23CC4CC(CC(C4)C2)C3)nc1	14.5
108	CCC1=NN(C(=O)Cc2ccc([N+](=O)[O-])cc2)C(O)(C(F)(F)F)C1 (stereo unspecified)	10.3
109	CC(=O)c1ccc(OCC(=O)NCC2(N3CCCCC3)CCCCC2)cc1	15.9
110	Cc1cccc(NC(=O)CN2C(=O)S/C(=C\c3ccc(-c4cccc(C(=O)O)c4C)o3)C2=O)c1	15.9
111	CC(=O)Nc1c(C)ccc(CNC(=O)COc2ccc(F)cc2)c1C	19.6
112	COc1ccccc1C(=O)N(CCC1CCCN1C)c1nc2ccccc2s1 (stereo unspecified)	-1.3
113	CCCSC1=N/C(=C/c2ccsc2)C(=O)N1c1ccccc1	-6.8
114	CC(=O)Cn1ncc(N2CCOCC2)cc1=O	-11.2
115	O=C1C2C(c3cccc(/C=C/c4ccccc4)c3)CC=CC2C(c2ccc(C(F)(F)F)cc2)N1Cc1ccccc1 (stereo unspecified)	16.1
116	Cc1nc2ccc(NC(=O)c3ccc([N+](=O)[O-])cc3)cc2s1	8.1
117	CCOc1nc(SCCOc2ccc(Cl)cc2Cl)nc(N(C)C)n1	9.1
118	COc1ccc(OCc2n[nH]c(=S)n2-c2ccc(C)cc2)cc1	20.1
119	CCOC(=O)c1c(-c2ccccc2)cn2c(C)cc(C)nc12	16.1
120	CC(NC(=O)C1CCC(C(C)(C)C)CC1)C(c1ccccc1)N1CCOCC1 (stereo unspecified)	-14.0
121	COc1cc(/C=C2\SC(=S)N(CC(=O)Nc3cccnc3)C2=O)cc(OC)c1OC	11.9
122	CN1CCS/C1=C/C=C1\SC(=S)N(CC(=O)O)C1=O	6.2
123	CCOc1cc(C(=O)N/N=C(\C)Cc2ccc(OC)cc2)cc(OCC)c1OCC	11.8
124	CCOC(=O)C1=C2c3cc(OC)c(OC)cc3CC(C)(C)N2C(=O)C1=O	17.7
125	CCc1cc(C(=O)O)c(NC(=O)/C=C/c2ccc(OC)cc2)s1	20.4
126	CC(=O)N1CCCc2cc(S(=O)(=O)NC(C(=O)NC3CCCCC3)C(C)C)ccc21 (stereo unspecified)	20.5
127	CCOc1ccc2[nH]c3c(N4CCN(C(=O)c5ccco5)CC4)ncnc3c2c1	19.1
128	CC(C)CCNC(=O)c1cc(-c2ccncc2)nc2ccc(S(=O)(=O)N3CCOCC3)cc12	10.0
129	CCCCNC(=S)NCc1ccc2[nH]c3c(c2c1)CCCC3	11.2
130	O=C(COC(=O)c1cc(C(F)(F)F)cc(C(F)(F)F)c1)NCc1ccc(Cl)cc1	15.4
131	O=C(Nc1cccc(-c2nc3ncccc3o2)c1)c1ccccc1	10.9

Screening data deposited in PubChem BioAssay by PCMD.

These rows are one share of the data (hit frequency here may not be typical).
